Insulin prom inh – inhibitors of insulin promoter-driven GFP, primary screen, imaging, TRM-6 cells (human fetal islet line), eGFP reporter, cell count | inhibition, % at 2 µM | reporter expression induced with tamoxifen | 0.9% of 130,000 active;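 active = inhibition above the mean plus 3 SD, with well images judged a real hit on visual review, cut at about 60% in these data, passing the limit was not always enough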
GALR2 agonist – GALR2 receptor agonists, primary screen, cell-based. Galanin receptor type 2 (Homo sapiens), O43603. GALR2-expressing cells, agonist activation read-out. activation, %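 (tested at 5 µM)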. 0.48% of 140,000 active;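 active = above mean plus 3 SD of all compounds, about 5% in these data, not always enough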;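 also: 0% = vehicle buffer wells and 100% = reference agonist at full effect; tested in CHO reporter cells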
Target sequence (O43603 whole entry, looked up): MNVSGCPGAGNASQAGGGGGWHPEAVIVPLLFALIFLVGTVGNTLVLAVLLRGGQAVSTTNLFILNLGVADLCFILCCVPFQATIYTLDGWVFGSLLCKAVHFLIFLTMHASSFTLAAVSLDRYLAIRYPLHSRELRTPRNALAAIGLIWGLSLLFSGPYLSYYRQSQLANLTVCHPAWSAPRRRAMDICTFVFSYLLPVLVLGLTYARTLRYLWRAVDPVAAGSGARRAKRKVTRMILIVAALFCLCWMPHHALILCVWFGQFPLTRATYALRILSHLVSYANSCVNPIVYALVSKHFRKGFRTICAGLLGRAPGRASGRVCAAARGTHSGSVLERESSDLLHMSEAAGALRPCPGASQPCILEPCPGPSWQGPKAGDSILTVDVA
PKD1 kinase inh – inhibitors of human PKD1 kinase, biochemical, fluorescence polarization | Serine/threonine-protein kinase D1 (Homo sapiens), Q15139 | PKD1 kinase fluorescence polarization assay | inhibition, %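 (about 10 µM by stock and volumes)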 | 0.056% of 200,000 active | AID 797, 2007;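 active = inhibition of 50% or more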;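 also: controls were vehicle for no effect and a reference inhibitor for full effect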
RGS16-Gao – modulators of RGS16 binding to Galphao, primary screen, biochemical, human proteins, multiplexed bead flow cytometry. Regulator of G-protein signaling 16 (Homo sapiens) + Guanine nucleotide-binding protein …. bead-based flow cytometry RGS16-Galphao binding, fluorescence; actives lie on both sides. AID 1441, 2008. 0.38% of 220,000 active. binding response (% of control), % at 10 µM;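 active = below 25% or above 175%, edge rows of some plates excepted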;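 also: Galphao activated by GDP with aluminum fluoride before binding; 100% = wells without compound and 0% = beads without RGS; some results beyond the cut were filed as inactive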
Target sequence (O15492 whole entry, looked up): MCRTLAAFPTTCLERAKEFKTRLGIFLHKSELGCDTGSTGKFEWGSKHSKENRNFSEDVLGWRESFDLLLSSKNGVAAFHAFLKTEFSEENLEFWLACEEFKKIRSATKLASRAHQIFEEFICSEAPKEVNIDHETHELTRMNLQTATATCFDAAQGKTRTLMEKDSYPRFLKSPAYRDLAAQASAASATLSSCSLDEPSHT
Target sequence (P09471 whole entry, looked up): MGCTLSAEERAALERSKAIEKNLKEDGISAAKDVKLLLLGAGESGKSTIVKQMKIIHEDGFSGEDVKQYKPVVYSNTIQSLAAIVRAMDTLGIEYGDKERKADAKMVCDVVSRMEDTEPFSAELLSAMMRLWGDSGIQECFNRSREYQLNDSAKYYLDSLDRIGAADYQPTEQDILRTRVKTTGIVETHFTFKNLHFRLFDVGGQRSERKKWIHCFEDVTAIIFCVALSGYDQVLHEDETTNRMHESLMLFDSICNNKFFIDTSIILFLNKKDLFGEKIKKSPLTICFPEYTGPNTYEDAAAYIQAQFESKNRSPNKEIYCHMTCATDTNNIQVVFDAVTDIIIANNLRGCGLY
HSV replic up – enhancers of HSV replication in host cells, fold increase, host cell viability | maximum fold increase | HSV replication augmentation in cells | 0.005% of 220,000 active;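 active = peak rise of 1.5-fold or more in the series; tested in PC3 cells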;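 also: first round at 10 µM; read as green reporter fluorescence; hits show the peak of a series up to 25 µM; 1 = signal of infected wells without compound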
Insulin prom inh cell count – further read-out of Insulin prom inh, marked with its call; normalized cell count, %; measured here: cell count, toxicity; reference of the scale not given here;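 cells exposed to compound for 48 h; stained nuclei by imaging scaled within each plate; lower means fewer cells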
HSV replic up primary fold – also measured in HSV replic up; calls as there; fold increase; compound at 10 µM; measured here: primary screen fold increase 10 uM; tested in PC3 cells;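 GFP signal in the first replicate; 1 = infected wells without compound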
* hit, by the source's call.

For CN(C)c1nnc(-c2ccc(Cl)cc2)o1 the results were Insulin prom inh 6, PKD1 kinase inh -1, RGS16-Gao 101, HSV replic up inactive, Insulin prom inh cell count 76 and HSV replic up primary fold 0.9.
For O=C(COC(=O)COc1ccc(Cl)cc1Cl)Nc1cccnc1Cl the results were Insulin prom inh -7, GALR2 agonist -1.8, PKD1 kinase inh 0, RGS16-Gao 45, HSV replic up inactive, Insulin prom inh cell count 75 and HSV replic up primary fold 0.95.
`Cc1sc(NC(=O)CSc2nc(N)n(CC(=O)c3ccccc3)n2)c(C#N)c1C` gave Insulin prom inh 8, GALR2 agonist 1.5, PKD1 kinase inh -2, RGS16-Gao 100, HSV replic up inactive, Insulin prom inh cell count 112 and HSV replic up primary fold 0.92.
CC(C)NC(=O)c1cc(C(=O)c2cc(Cl)ccc2O)coc1=N was read as GALR2 agonist -0.4, PKD1 kinase inh 4, RGS16-Gao 99, HSV replic up inactive and HSV replic up primary fold 0.91.
For Cn1c(=O)c2ncn(CC(=O)Nc3cccc(-c4nc5ccccc5s4)c3)c2n(C)c1=O the results were Insulin prom inh 15, GALR2 agonist -2.8, PKD1 kinase inh -1, RGS16-Gao 97, HSV replic up inactive, Insulin prom inh cell count 47 and HSV replic up primary fold 0.96.
C=CCCC(=O)Nc1nc(C)c(-c2csc(Nc3ccc(Cl)cc3)n2)s1 was read as Insulin prom inh 41, GALR2 agonist -2.7, PKD1 kinase inh 6, RGS16-Gao 100, HSV replic up inactive, Insulin prom inh cell count 100 and HSV replic up primary fold 0.76.
For CCCSc1cc(=O)n(-c2ccccc2)nc1C(=O)O the results were PKD1 kinase inh -2, RGS16-Gao 100, HSV replic up inactive and HSV replic up primary fold 1.1.
For Cc1ccc(Nc2c(-c3ccc(N4CCOCC4)cc3)nc3ncccn23)cc1 the results were Insulin prom inh 37, GALR2 agonist -0.7, PKD1 kinase inh -8, RGS16-Gao 121 and Insulin prom inh cell count 77.
CCn1c(COc2ccccc2C)nnc1SCC(=O)N1CCCCC1 was read as Insulin prom inh 0, GALR2 agonist -0.6, PKD1 kinase inh -12, RGS16-Gao 111, HSV replic up inactive, Insulin prom inh cell count 143 and HSV replic up primary fold 0.76.
Screening O=C(NCc1ccccn1)C(=O)Nc1cccc2ccccc12 returned Insulin prom inh -12, PKD1 kinase inh 0, RGS16-Gao 106, HSV replic up inactive, Insulin prom inh cell count 97 and HSV replic up primary fold 0.95.
CCCCCC(=O)N1CCN(CCN=CC2=C(O)CC(c3ccc(OC)c(OC)c3)CC2=O)CC1 (stereo unspecified) was read as Insulin prom inh 9, GALR2 agonist 0.7, PKD1 kinase inh -12, RGS16-Gao 99, HSV replic up inactive, Insulin prom inh cell count 159 and HSV replic up primary fold 0.91.
For Cc1cc(C)n2nc(C(=O)Nc3ccc(N4CCOCC4)cc3)nc2n1 the results were Insulin prom inh -59, GALR2 agonist 1.0, PKD1 kinase inh 1, RGS16-Gao 99, HSV replic up inactive, Insulin prom inh cell count 72 and HSV replic up primary fold 1.

Compounds shown so far with a halogen (four):
For CN(C)c1nnc(-c2ccc(Cl)cc2)o1 the results were Insulin prom inh 6, PKD1 kinase inh -1, RGS16-Gao 101, HSV replic up inactive, Insulin prom inh cell count 76 and HSV replic up primary fold 0.9.
For O=C(COC(=O)COc1ccc(Cl)cc1Cl)Nc1cccnc1Cl the results were Insulin prom inh -7, GALR2 agonist -1.8, PKD1 kinase inh 0, RGS16-Gao 45, HSV replic up inactive, Insulin prom inh cell count 75 and HSV replic up primary fold 0.95.
CC(C)NC(=O)c1cc(C(=O)c2cc(Cl)ccc2O)coc1=N was read as GALR2 agonist -0.4, PKD1 kinase inh 4, RGS16-Gao 99, HSV replic up inactive and HSV replic up primary fold 0.91.
C=CCCC(=O)Nc1nc(C)c(-c2csc(Nc3ccc(Cl)cc3)n2)s1 was read as Insulin prom inh 41, GALR2 agonist -2.7, PKD1 kinase inh 6, RGS16-Gao 100, HSV replic up inactive, Insulin prom inh cell count 100 and HSV replic up primary fold 0.76.

(continued)
`Cc1nc2ccc(NC(=O)C3CCN(S(=O)(=O)c4cccs4)CC3)cc2s1` gave GALR2 agonist 0.1, PKD1 kinase inh -3, RGS16-Gao 38, HSV replic up inactive and HSV replic up primary fold 0.9.
`O=[N+]([O-])C(/C=C(\Cl)[N+](=O)[O-])=C1N(Cc2ccc(Cl)nc2)CCN1Cc1ccc(Cl)nc1` gave Insulin prom inh -75, GALR2 agonist -1.7, PKD1 kinase inh -6, RGS16-Gao 100, HSV replic up inactive, Insulin prom inh cell count 67 and HSV replic up primary fold 0.88.
`O=C(Nc1ccc(F)cc1)C1CCCN(S(=O)(=O)c2cccc3cccnc23)C1` (stereo unspecified) gave GALR2 agonist -0.7, PKD1 kinase inh -9, RGS16-Gao 106, HSV replic up inactive and HSV replic up primary fold 0.98.
Screening Cc1c(C)c2cc(Cl)c(O)c(CN3CCN(C)CC3)c2oc1=O returned Insulin prom inh 38, GALR2 agonist 4.2, PKD1 kinase inh -6, RGS16-Gao 103, HSV replic up inactive, Insulin prom inh cell count 78 and HSV replic up primary fold 0.83.
CCOC(=O)C1CCN(S(=O)(=O)c2ccc(-n3cnnn3)c(C)c2)CC1 was read as Insulin prom inh -40, GALR2 agonist 1.2, PKD1 kinase inh -7, RGS16-Gao 104, HSV replic up inactive, Insulin prom inh cell count 109 and HSV replic up primary fold 1.
`Cc1ccc(C(=O)NCCCNCCCN(C)C)cn1` gave Insulin prom inh -31, GALR2 agonist -0.6, PKD1 kinase inh 7, RGS16-Gao 105, HSV replic up inactive, Insulin prom inh cell count 89 and HSV replic up primary fold 1.
Screening CN1CCC(N(C)CC(C)(C)NS(=O)(=O)c2ccccc2)CC1 returned RGS16-Gao 101, HSV replic up inactive and HSV replic up primary fold 0.93.
`Cc1ccc(OCCn2cnc(Cl)c2Cl)cc1` gave Insulin prom inh -53, PKD1 kinase inh -2, RGS16-Gao 111, HSV replic up inactive, Insulin prom inh cell count 100 and HSV replic up primary fold 1.
For CC1=CC(C)(C)N(C(=O)c2ccccc2)c2ccc(C)cc21 the results were Insulin prom inh 3, GALR2 agonist 2.3, PKD1 kinase inh -9, RGS16-Gao 97 and Insulin prom inh cell count 60.
Screening CN1CCN(c2nc3ccccn3c(=O)c2/C=C(\C#N)S(=O)(=O)c2ccccc2)CC1 returned RGS16-Gao 104, HSV replic up inactive and HSV replic up primary fold 1.
CN1CCN(C(=O)C2(NC(=O)Nc3cccc(F)c3)CCCCC2)CC1 was read as Insulin prom inh -59, GALR2 agonist -2.4, PKD1 kinase inh -6, RGS16-Gao 100, HSV replic up inactive, Insulin prom inh cell count 129 and HSV replic up primary fold 0.92.
For CC1=NNC(=O)C1CCC(=O)N/N=C/c1ccco1 (stereo unspecified) the results were Insulin prom inh -7, PKD1 kinase inh -4, RGS16-Gao 110, HSV replic up inactive, Insulin prom inh cell count 98 and HSV replic up primary fold 0.97.
Screening Cn1c(Cc2csc(N)n2)nnc1SC/C=C/c1ccccc1 returned Insulin prom inh -200, GALR2 agonist -4.7, PKD1 kinase inh 5, RGS16-Gao 99, HSV replic up inactive, Insulin prom inh cell count 61 and HSV replic up primary fold 0.92.
For CCn1c(SCC(=O)OC)nnc1-c1c[nH]c2ccccc12 the results were RGS16-Gao 96, HSV replic up inactive and HSV replic up primary fold 0.69.
For CCOc1ccc(NS(=O)(=O)c2ccc3ncsc3c2)cc1 the results were PKD1 kinase inh 1, RGS16-Gao 143, HSV replic up inactive and HSV replic up primary fold 0.84.
`CCN(CC)S(=O)(=O)c1ccc(Nc2cc(C)nc3ncnn23)cc1` gave Insulin prom inh 48, GALR2 agonist -2.1, PKD1 kinase inh -2, RGS16-Gao 104, HSV replic up inactive, Insulin prom inh cell count 83 and HSV replic up primary fold 0.9.
For O=C(N/N=C/c1cc2cc3c(cc2nc1Cl)OCO3)c1ccncc1 the results were RGS16-Gao 103, HSV replic up inactive and HSV replic up primary fold 1.3.
Screening N#Cc1ccc(CSc2nnc(NC(=O)c3ccc(=O)[nH]c3)s2)cc1 returned RGS16-Gao 105, HSV replic up inactive and HSV replic up primary fold 1.
For Cc1ccc(N=C2CSC(=O)N2)cc1 the results were Insulin prom inh 0, PKD1 kinase inh -1, RGS16-Gao 98, HSV replic up inactive, Insulin prom inh cell count 135 and HSV replic up primary fold 0.99.
`Cc1cc(C(=O)NP(=O)(N2CCOCC2)N2CCOCC2)c(C)n1-c1ccc(N(C)C)cc1` gave GALR2 agonist -0.9, PKD1 kinase inh 0, RGS16-Gao 95, HSV replic up inactive and HSV replic up primary fold 1.1.
`COC(=O)c1sc(NC(=S)NC(=O)c2ccccc2Cl)nc1C` gave Insulin prom inh 25, GALR2 agonist -0.6, PKD1 kinase inh -2, RGS16-Gao 116, HSV replic up inactive, Insulin prom inh cell count 100 and HSV replic up primary fold 1.
`CCOC(=S)SCc1cn2cccc(C)c2n1` gave Insulin prom inh -33, PKD1 kinase inh 5, RGS16-Gao 103, HSV replic up inactive, Insulin prom inh cell count 219 and HSV replic up primary fold 1.1.
For Cn1nnc(NC(=S)NC(=O)c2cccs2)n1 the results were Insulin prom inh -11, GALR2 agonist -0.2, PKD1 kinase inh -4, RGS16-Gao 109, HSV replic up inactive, Insulin prom inh cell count 95 and HSV replic up primary fold 1.1.
CCN(c1ccc(NC(=O)COC(=O)c2ccc(S(=O)(=O)N3CCCC3)cc2)cc1)C(C)C was read as GALR2 agonist -2.7, PKD1 kinase inh -5, RGS16-Gao 103, HSV replic up inactive and HSV replic up primary fold 0.86.
`CCN1CCN(CC(=O)c2cc(Cl)ccc2Cl)CC1` gave Insulin prom inh 15, PKD1 kinase inh 5, RGS16-Gao 95, HSV replic up inactive, Insulin prom inh cell count 110 and HSV replic up primary fold 1.1.
For O=c1[nH]c(N2CCN(c3ccccc3)CC2)nc2c1CCCC2 the results were Insulin prom inh -8, GALR2 agonist -0.7, PKD1 kinase inh -2, RGS16-Gao 100, HSV replic up inactive, Insulin prom inh cell count 154 and HSV replic up primary fold 0.93.
O=S(=O)(Cc1cc(N2CCOCC2)nc(-c2ccccn2)n1)c1ccccc1 was read as Insulin prom inh -51, PKD1 kinase inh 6, RGS16-Gao 109, HSV replic up inactive, Insulin prom inh cell count 84 and HSV replic up primary fold 0.95.
Screening CC(=O)N1CCN(c2ccc(NC(=S)NC(=O)c3ccc(C)c([N+](=O)[O-])c3)cc2)CC1 returned RGS16-Gao 105, HSV replic up inactive and HSV replic up primary fold 1.
Screening Cn1c2ccccc2c2cc(C(=O)NNC(=O)CCl)sc21 returned Insulin prom inh -20, PKD1 kinase inh -2, RGS16-Gao 100, HSV replic up inactive, Insulin prom inh cell count 93 and HSV replic up primary fold 0.91.
Screening CCCc1nc(SCC(=O)c2ccc(F)cc2)c2ccccc2n1 returned PKD1 kinase inh 6, RGS16-Gao 104, HSV replic up inactive and HSV replic up primary fold 1.1.
For COc1ccc(C(=O)NCCn2cc(SCC(=O)NCc3ccco3)c3ccccc32)cc1 the results were Insulin prom inh -14, GALR2 agonist -0.2, PKD1 kinase inh -1, RGS16-Gao 101, HSV replic up inactive, Insulin prom inh cell count 113 and HSV replic up primary fold 1.
Clc1ccc(Oc2nc3c(Cl)cccc3s2)cc1Cl was read as RGS16-Gao 100, HSV replic up inactive and HSV replic up primary fold 1.
For CC(=O)N(CN1C(=O)c2ccc([N+](=O)[O-])cc2C1=O)c1cccc(C(=O)O)c1 the results were Insulin prom inh -36, PKD1 kinase inh -5, RGS16-Gao 116, HSV replic up inactive, Insulin prom inh cell count 70 and HSV replic up primary fold 1.1.
Cc1nc2ccc(NC(=O)c3cccc(S(=O)(=O)N4CC(C)OC(C)C4)c3)cc2s1 (stereo unspecified) was read as Insulin prom inh 11, GALR2 agonist -0.7, PKD1 kinase inh -2, RGS16-Gao 103, HSV replic up inactive, Insulin prom inh cell count 114 and HSV replic up primary fold 1.2.
`CN(C)c1ccnc(Nc2ccc(F)cc2)c1C#N` gave PKD1 kinase inh -5, RGS16-Gao 96, HSV replic up inactive and HSV replic up primary fold 0.99.
For CCOc1ccccc1NC(=O)COc1cccc(-n2cnnn2)c1 the results were Insulin prom inh 44, GALR2 agonist -0.6, PKD1 kinase inh -4, RGS16-Gao 105, HSV replic up inactive, Insulin prom inh cell count 116 and HSV replic up primary fold 0.95.

Fetched by compound from the list above (two):
For CCOc1ccccc1NC(=O)COc1cccc(-n2cnnn2)c1 the results were Insulin prom inh 44, GALR2 agonist -0.6, PKD1 kinase inh -4, RGS16-Gao 105, HSV replic up inactive, Insulin prom inh cell count 116 and HSV replic up primary fold 0.95.
Clc1ccc(Oc2nc3c(Cl)cccc3s2)cc1Cl was read as RGS16-Gao 100, HSV replic up inactive and HSV replic up primary fold 1.

Compound activity deposited in PubChem BioAssay by several laboratories.
